Source: PubChem BioAssay (several laboratories)
YopH PTP inh – blocks Yersinia enterocolitica YopH tyrosine phosphatase | 0.16% of 140,000 active | fluorescence Ex485/Em525 | inhibition, %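 (about 10 µM by stock and volumes)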;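 active = inhibition of 50% or more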;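 also: controls were vehicle for no effect and minimum signal wells for full effect; inactives centre near -20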
Mtb growth – M. tuberculosis H37Rv growth inhibitors, H37Rv strain (AID 1626) | M. tuberculosis H37Rv growth inhibition; higher % means a stronger effect | 0.95% of 220,000 active | inhibition, % at 10 µM; hits with a dose series show IC50 in µM;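 active = confirmed in a dose series; inconclusive = inhibition above 80% but not taken into the dose series; inactive = below 80% or under 30% at every dose of the series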;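 also: bacteria incubated seven days before Alamar blue readout; 0% = bacteria only wells and 100% = bacteria with antibiotic wells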
Arbovirus anti – arbovirus infection inhibition; arbovirus infection cell-based antiviral screen; inhibition, % at 10 µM; 0.37% of 200,000 active; AID 1251;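 active = inhibition from about 30%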;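 also: bluetongue infection of BSR cells; cell survival read as ATP light after 72 h; 0% = infected wells without compound and 100% = uninfected wells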
Mtb bLac sens – beta-lactam sensitization of Mtb H37Rv | M. tuberculosis H37Rv growth with meropenem, percent inhibition; hits of this screen are not shown here | 0.27% of 330,000 active | inhibition, % at 25 µM;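 active = about 74% or more and at least 40 points above the plate without the antibiotic, then above 30% in a dose series; inconclusive = first-round hits that could not be retested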;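 also: growth measured after seven days incubation then overnight dye step; 0% = bacteria only wells and 100% = bacteria with antibiotic; twin plates without the antibiotic show which effects depend on it; some results filed as inactive read as strong as hits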
RecA splice inh – blocks M. tuberculosis RecA intein splicing; P9WHJ3; cell-free RecA intein splicing, fluorescence; inhibition, %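 (about 9 µM by stock and volumes)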; 0.75% of 290,000 active; AID 2221; in the data active = inhibition above about 30%; inconclusive = no clear call, values can overlap the other calls;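 also: 0% = vehicle wells and 100% = reference inhibitor control wells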
Target sequence (P9WHJ3 whole entry, looked up, canonical isoform): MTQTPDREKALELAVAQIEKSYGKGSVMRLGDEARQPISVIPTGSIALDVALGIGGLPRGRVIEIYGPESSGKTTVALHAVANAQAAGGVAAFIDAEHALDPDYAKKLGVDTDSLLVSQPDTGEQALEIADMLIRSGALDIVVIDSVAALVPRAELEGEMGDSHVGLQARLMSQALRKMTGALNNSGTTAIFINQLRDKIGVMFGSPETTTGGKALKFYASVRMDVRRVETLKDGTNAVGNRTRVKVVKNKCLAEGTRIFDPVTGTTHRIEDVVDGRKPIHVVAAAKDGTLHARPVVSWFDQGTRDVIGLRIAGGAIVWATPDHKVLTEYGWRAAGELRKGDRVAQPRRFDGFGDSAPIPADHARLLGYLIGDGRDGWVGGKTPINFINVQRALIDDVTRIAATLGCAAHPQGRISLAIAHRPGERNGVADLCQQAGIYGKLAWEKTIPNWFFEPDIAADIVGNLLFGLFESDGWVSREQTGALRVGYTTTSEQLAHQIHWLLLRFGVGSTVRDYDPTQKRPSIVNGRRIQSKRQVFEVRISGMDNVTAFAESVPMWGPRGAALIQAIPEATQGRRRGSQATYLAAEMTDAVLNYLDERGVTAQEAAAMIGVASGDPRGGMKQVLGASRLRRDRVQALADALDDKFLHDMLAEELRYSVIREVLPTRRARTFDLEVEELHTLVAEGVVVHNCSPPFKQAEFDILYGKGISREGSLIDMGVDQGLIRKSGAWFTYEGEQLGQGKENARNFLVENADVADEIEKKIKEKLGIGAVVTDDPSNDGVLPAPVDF
Arbovirus anti repeat – recorded beside Arbovirus anti, whose call it bears; inhibition, %; measured here: 10K subset replicate screen; many hits read low in the repeat;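 first of two repeat runs on a subset; 0% = infected and 100% = uninfected wells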
* marks the source's active call; other numbers are inactive results; ? = inconclusive; nt = no result given.

SMILES | YopH PTP inh | Mtb growth | Arbovirus anti | Mtb bLac sens | RecA splice inh | others
CC(=O)Nc1ccc(S(=O)(=O)NCC(=O)NNC(=O)c2csc(N3CCOCC3)n2)cc1 | nt | nt | nt | -8 | 0.0
CC(=O)NC(CC(=O)N1CCCC1)c1ccccc1 (stereo not given) | nt | nt | nt | -12 | 8.7
CCCOc1ccc(CN(CCC#N)C(=S)NC(=O)c2ccccc2)cc1 | -15 | ? | -15 | 0 | 2.0
CSc1ncc(Cl)c(C(=O)Nc2ccc(C)c(C)c2)n1 | nt | nt | nt | 13 | -0.9
O=C(Oc1ccc(/C=N/n2cnnc2)cc1)c1cccc([N+](=O)[O-])c1 | nt | 7% | -1 | -4 | 6.3
O=C(NCc1ccccc1)C(=O)NCC1OCCN1S(=O)(=O)c1ccc(Br)cc1 (stereo not given) | nt | nt | nt | -10 | 2.0
COc1ccc(NC(C)=O)cc1NC(=O)CSc1nnc(-c2ccccn2)n1C | -41 | -4% | -2 | -7 | 0.9
CC(=O)NCCc1nc(-c2ccc(Cl)cc2)no1 | nt | -5% | nt | -12 | -10.0
CCC1(O)CC(C(=O)OC)=NN1C(=O)c1ccccc1 (stereo not given) | -26 | 3% | 6 | 4 | -5.3
C=CCNC(=O)COCc1cc(-c2ccc3c(c2)OCO3)on1 | nt | nt | nt | -3 | 0.2
Nc1nc2ccccc2n1C(=O)c1cccs1 | nt | ? | -5 | nt | -1.8
COc1ccc(CNC(=O)CN=C2NC(=O)C(c3ccccc3)(c3ccccc3)N2)cc1 | -23 | 3% | 25 | -1 | 1.4
COc1cccc(CN2CCSCC2)c1OC | nt | nt | nt | -6 | -3.8
COc1cccc(N2CCN(C(=O)NC3CCCCC3)CC2)c1 | -40 | -2% | 3 | -6 | nt
CC(=O)OC(C)C(=O)NS(=O)(=O)c1ccc(C)cc1 (stereo not given) | nt | 1% | 6 | 6 | 4.1
CS(=O)(=O)c1ccc(C(=O)NC2CCCCC2)cc1 | -21 | -14% | -7 | 0 | -0.6
N#C/C(C(=O)NCc1ccco1)=C1/SC(Cc2ccc(Cl)cc2)C(=O)N1c1ccccc1 (stereo not given) | -1 | -6% | 3 | 1 | 3.7
CCOC(=O)c1sc(=NC(=O)c2cccs2)n(C)c1C | nt | -8% | -5 | -1 | 1.8
Cc1cc(C)n2nc(NCc3cccc(Br)c3)nc2n1 | -29 | 0% | -18 | -3 | 9.5
O=C(Nc1ccncc1)c1ccc(Cl)c(S(=O)(=O)N2CCCCC2)c1 | nt | nt | nt | -11 | 1.3
N#C/C(=C\c1cn(-c2ccccc2)nc1-c1cccnc1)c1nnc2n1CCCCC2 | -10 | -2% | -4 | 8 | 2.7
COc1ccccc1CC(=O)Nc1cc2oc3ccccc3c2cc1OC | -20 | -9% | -5 | 5 | nt
O=C(Nc1n[nH]c(=S)s1)c1ccc2ccccc2c1 | nt | nt | nt | 14 | 0.8
COc1ccc(OC)c(NC(=O)C2CCCN(S(=O)(=O)c3cccc4cccnc34)C2)c1 (stereo not given) | -8 | 0% | 2 | -7 | 2.9 | Arbovirus anti repeat=-1
COC(=O)c1cn(NC(=O)CC2CCCCC2)c(=O)c2ccccc12 | -15 | -1% | 0 | -4 | 1.2 | Arbovirus anti repeat=1

(listing goes on)
SMILES | YopH PTP inh | Mtb growth | Arbovirus anti | Mtb bLac sens | RecA splice inh | others
CNC(=O)N1c2ccccc2NC(=O)CC1C (stereo not given) | nt | 1% | 16 | -4 | -3.8
CC(=O)c1c(C)[nH]c(C(=O)NC(C)c2ccccc2)c1C (stereo not given) | nt | 0% | 5 | -7 | -1.6
Cc1cc(C)c(S(=O)(=O)NC(CC(=O)O)c2cccc([N+](=O)[O-])c2)c(C)c1 (stereo not given) | nt | -7% | 9 | -10 | -1.8
Cc1nnc(CN(C)C(=O)c2cc(COc3ccc(C)c(C)c3)on2)o1 | nt | nt | nt | 0 | 0.4
Cc1noc(C)c1COc1ccccc1C(=O)NNC(=O)C(C)Oc1ccccc1F (stereo not given) | nt | nt | nt | -10 | -4.1
CC(O)(C#CCN1CCCCCC1)c1ccccc1 (stereo not given) | nt | -15% | -1 | -2 | -0.1
CCOC(=O)c1ccccc1NC(=O)N1CCn2c(C)ccc2C1CC (stereo not given) | -8 | 4% | 4 | 0 | 2.2
CCN1CCN(C(=O)C2COc3ccccc3O2)CC1 (stereo not given) | nt | nt | nt | -10 | -0.3
Fc1ccc(CNc2ccc(CNc3ncn[nH]3)cc2)cc1 | -13 | 7% | -4 | nt | -3.1
Cn1ccs/c1=N\C(=O)Nc1cccc(C(F)(F)F)c1 | nt | nt | nt | -2 | -0.6
COc1ccccc1NC(=O)C(C)OC(=O)CCCc1c[nH]c2ccccc12 (stereo not given) | nt | nt | nt | 2 | 8.2
CCNc1oc(-c2ccc(OC)cc2)nc1S(=O)(=O)c1ccc(Br)cc1 | 11 | -3% | -7 | -16 | 0.5
O=C(NC(Cc1ccccc1)C(=O)O)/C(=C\c1ccc(Cl)cc1)NC(=O)c1ccccc1 (stereo not given) | nt | 1% | 5 | -10 | -3.2
COc1ccc2ccccc2c1CNCCN1CCOCC1 | nt | nt | nt | 4 | 3.8
NNC(=O)CNc1cccc(Cl)c1 | nt | -9% | 1 | 2 | 2.3
O=c1c2cc(Cl)ccc2oc2nc3n(c(=O)c12)CCCS3 | -38 | 0.8µM* | 1 | 100 | -0.4
CCCc1nc(N2CCOCC2)c(C#N)c2c1CCCC2 | 6 | 15% | 9 | 4 | 7.2
CCC(Oc1ccccc1OC)C(=O)Nc1ccc2c(c1)n(C)c(=O)n2C (stereo not given) | nt | nt | nt | 3 | -2.0
CC(C)Cc1cc(C(=O)Nc2cc(Cl)ccc2Cl)no1 | -2 | nt | -3 | 12 | 2.8 | Arbovirus anti repeat=2
Cc1c(CC(=O)N2CCN(C(=O)C3COc4ccccc4O3)CC2)c(=O)oc2c(C)c(O)ccc12 (stereo not given) | nt | nt | nt | -4 | -149
O=C(c1cc(-c2ccccc2)on1)N1CCC2(CC1)OCCO2 | nt | 5% | -1 | -5 | 1.2
CCN(CC)CCCNC(=O)Cn1cnc2ccc(S(=O)(=O)N3CCC(C)CC3)cc2c1=O | nt | 5% | 0 | -9 | 1.3
CCC1CCCCN1CCCNC(=O)C1CCCN(c2nn3c(=O)cc(C)nc3s2)C1 (stereo not given) | nt | nt | nt | -4 | 1.1
O=C(Cc1ccc(F)cc1)Nc1cccc2cccnc12 | -10 | 11% | 0 | 1 | 11
Cc1nnc(SCC(=O)N2CCN(C(=O)c3ccco3)CC2)n1-c1ccccc1 | nt | 3% | 5 | 5 | -0.8

Structures above containing a halogen:
SMILES | YopH PTP inh | Mtb growth | Arbovirus anti | Mtb bLac sens | RecA splice inh | others
CSc1ncc(Cl)c(C(=O)Nc2ccc(C)c(C)c2)n1 | nt | nt | nt | 13 | -0.9
O=C(NCc1ccccc1)C(=O)NCC1OCCN1S(=O)(=O)c1ccc(Br)cc1 (stereo not given) | nt | nt | nt | -10 | 2.0
CC(=O)NCCc1nc(-c2ccc(Cl)cc2)no1 | nt | -5% | nt | -12 | -10.0
N#C/C(C(=O)NCc1ccco1)=C1/SC(Cc2ccc(Cl)cc2)C(=O)N1c1ccccc1 (stereo not given) | -1 | -6% | 3 | 1 | 3.7
Cc1cc(C)n2nc(NCc3cccc(Br)c3)nc2n1 | -29 | 0% | -18 | -3 | 9.5
O=C(Nc1ccncc1)c1ccc(Cl)c(S(=O)(=O)N2CCCCC2)c1 | nt | nt | nt | -11 | 1.3
Cc1noc(C)c1COc1ccccc1C(=O)NNC(=O)C(C)Oc1ccccc1F (stereo not given) | nt | nt | nt | -10 | -4.1
Fc1ccc(CNc2ccc(CNc3ncn[nH]3)cc2)cc1 | -13 | 7% | -4 | nt | -3.1
Cn1ccs/c1=N\C(=O)Nc1cccc(C(F)(F)F)c1 | nt | nt | nt | -2 | -0.6
CCNc1oc(-c2ccc(OC)cc2)nc1S(=O)(=O)c1ccc(Br)cc1 | 11 | -3% | -7 | -16 | 0.5
O=C(NC(Cc1ccccc1)C(=O)O)/C(=C\c1ccc(Cl)cc1)NC(=O)c1ccccc1 (stereo not given) | nt | 1% | 5 | -10 | -3.2
NNC(=O)CNc1cccc(Cl)c1 | nt | -9% | 1 | 2 | 2.3
O=c1c2cc(Cl)ccc2oc2nc3n(c(=O)c12)CCCS3 | -38 | 0.8µM* | 1 | 100 | -0.4
CC(C)Cc1cc(C(=O)Nc2cc(Cl)ccc2Cl)no1 | -2 | nt | -3 | 12 | 2.8 | Arbovirus anti repeat=2
O=C(Cc1ccc(F)cc1)Nc1cccc2cccnc12 | -10 | 11% | 0 | 1 | 11

Copied from above for reference:
SMILES | YopH PTP inh | Mtb growth | Arbovirus anti | Mtb bLac sens | RecA splice inh | others
Cc1cc(C)c(S(=O)(=O)NC(CC(=O)O)c2cccc([N+](=O)[O-])c2)c(C)c1 (stereo not given) | nt | -7% | 9 | -10 | -1.8
Cc1nnc(CN(C)C(=O)c2cc(COc3ccc(C)c(C)c3)on2)o1 | nt | nt | nt | 0 | 0.4

The list goes on:
SMILES | YopH PTP inh | Mtb growth | Arbovirus anti | Mtb bLac sens | RecA splice inh | others
Cc1n[nH]c(=S)n1/N=C/c1ccc(-c2ccccc2[N+](=O)[O-])o1 | -20 | 8% | -6 | 7 | 0.8
CCOC(=O)O[C@]1(C(=O)OCCl)CC[C@H]2[C@@H]3CCC4=CC(=O)C=C[C@]4(C)[C@H]3[C@@H](O)C[C@@]21C | nt | -5% | nt | -3 | 1.0
Cc1ccc(C(=O)N(CCN(C)C)CC2CCCN(Cc3ccccc3F)C2)cc1C (stereo not given) | nt | nt | nt | 1 | -2.3
COc1cc(C(=O)Nc2nc3ccccc3[nH]2)ccc1OC(F)F | nt | ? | nt | 87 | -1.7
COc1ccc(N2CCN(C(=O)CCS(=O)(=O)c3ccc(OC)cc3)CC2)cc1 | nt | 1% | 4 | 4 | -4.2
CCOCCCn1c(=S)[nH]c2cc(C(=O)NCCN(CC)CC)ccc2c1=O | -33 | -10% | 3 | -1 | 0.7
COc1cc(C)c(Cl)cc1S(=O)(=O)NCc1ccncc1 | -16 | 3% | 14 | nt | 3.5
CCn1c(O)c(N=NC(=O)CNc2cccc(C)c2)c2ccccc21 | -14 | 2% | -16 | 5 | 8.9
CC1CCN(c2ncnc3c2cnn3-c2ccccc2)CC1 | nt | 5% | 2 | 8 | 7.5 | Arbovirus anti repeat=-1
O=C(c1ccccc1)N1CCN(CC(O)COC2CCCCC2)CC1 (stereo not given) | -24 | -4% | -2 | -9 | 0.6
CC(C)(C)c1cc(Cl)c(O)c(NC(=S)NC(=O)c2cccnc2)c1 | nt | ? | -25 | 94 | -3.6
CSc1nc(C)c(Oc2ccccc2)c(=O)n1C | -19 | 8% | -4 | -10 | 0.8
COCc1cc(=O)n2[nH]c(SC)nc2n1 | -40 | -3% | 3 | ? | 1.3
CC(=O)c1ccc(NC(=O)COC(=O)c2ccccc2Nc2ccccc2)cc1 | -14 | 6% | 4 | 2 | -15
O=C(O)C1CC1(c1ccccc1)c1ccccc1 (stereo not given) | nt | nt | nt | 5 | -3.5
C(=N\NC1=NCCCCC1)/c1c[nH]c2ccccc12 | nt | 16% | nt | -15 | 3.6
CNC(=O)C(=O)NCC1OCCN1S(=O)(=O)c1ccc2c(c1)OCCO2 (stereo not given) | nt | 1% | 2 | -1 | nt
CC(NC(=O)C(=O)NCCN1CCN(C(=O)c2ccccc2Br)CC1)c1ccccc1 (stereo not given) | nt | nt | nt | -2 | 15
O=c1c2cnn(-c3ccccc3)c2ncn1Cc1cccc(Cl)c1 | -38 | 7% | -5 | 1 | nt | Arbovirus anti repeat=-3
C/C=C/C(=O)N1CC2(CC(c3cccc(NC(=O)CC(c4ccccc4)c4ccccc4)c3)=NO2)C[C@H]1C(N)=O (stereo not given in full) | nt | 0% | nt | 24 | 7.5
CCC1=C(OC(=O)N(CC)CC)N2C(=O)OC(=NCCOC)[C@]2(Cc2ccccc2)[C@H]2C1=CC[C@H]1C(=O)NC(=O)[C@H]12 | nt | 10% | nt | -8 | -6.1
O=C(CCCc1nc(-c2ccccc2Cl)no1)NC1CCCC1 | nt | nt | nt | 9 | 1.5
CC1CCC(C(C)C)C(OC(=O)Cn2c(COc3ccccc3)[n+](C)c3ccccc32)C1 (stereo not given) | nt | ? | nt | 99 | 15

These rows are one share of the data. The share of hits here may be higher or lower than overall.
